# Yeast UUG start: alters start codon recognition fidelity in yeast | S. cerevisiae UUG-firefly luciferase reporter, luminescence/redox ratio | activity score, % at 18.7 µM | 350,000 tested, 0.13% active;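 active means replicate mean at a twofold rise or more, about +100% in these data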;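 further: firefly luciferase made from a UUG start codon reports start codon fidelity; reporter light over untreated wells divided by growth signal over untreated wells; some hits fall short of that in this replicate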
# PABP polyA inh: blocks human PABP binding to poly(A) RNA. AID 2014. fluorescence polarization. 290,000 tested, 1% active. P11940. inhibition, % at 35 µM;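 active means 50% or more with normal probe brightness, or confirmed in later tests; inconclusive means above 50% with abnormal brightness, or retests that disagree; inactive means below 50% or failed in later tests; about a fifth of its hits are not listed in these tables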;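 further: calls also rest on retests at 20 µM and on dose response follow-up; controls were probe without protein and protein plus probe with vehicle; some compounds called inactive have numbers as strong as hits; many hits fall short of the cut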
# Target sequence (P11940 whole entry, looked up): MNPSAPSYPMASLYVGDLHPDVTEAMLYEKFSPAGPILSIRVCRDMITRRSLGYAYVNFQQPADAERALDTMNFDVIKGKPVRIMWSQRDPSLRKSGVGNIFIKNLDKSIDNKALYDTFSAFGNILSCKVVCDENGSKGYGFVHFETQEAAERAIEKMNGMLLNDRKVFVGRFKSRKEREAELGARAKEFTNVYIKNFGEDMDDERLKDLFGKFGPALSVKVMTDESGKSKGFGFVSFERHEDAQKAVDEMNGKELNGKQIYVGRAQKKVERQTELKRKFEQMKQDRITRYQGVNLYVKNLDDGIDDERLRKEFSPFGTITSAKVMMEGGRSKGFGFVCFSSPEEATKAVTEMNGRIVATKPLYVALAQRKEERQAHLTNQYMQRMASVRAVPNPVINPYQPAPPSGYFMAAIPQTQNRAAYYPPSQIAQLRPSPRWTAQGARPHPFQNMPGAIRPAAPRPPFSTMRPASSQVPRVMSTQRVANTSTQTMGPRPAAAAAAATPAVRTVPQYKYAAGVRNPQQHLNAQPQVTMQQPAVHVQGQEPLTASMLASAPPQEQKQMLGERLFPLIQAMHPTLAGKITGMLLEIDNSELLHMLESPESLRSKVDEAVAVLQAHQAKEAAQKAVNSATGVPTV
# CSC inhib: blocks cancer stem cells; 300,000 tested, 1.1% active; AID 2717; cancer stem cell-like cells viability, luminescence; inhibition, % at 7.5 µM;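 active means mean at 75% or more and at least half the replicates too; inconclusive means mean and replicates disagree; tested in HMLE shEcad cells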;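 further: 0% = median of negative and 100% = median of positive control wells; the first replicate is given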
# eIF4H FP inh: inhibitors of RNA binding by human eIF4H | 290,000 tested, 0.94% active | Q15056 | eIF4H fluorescence polarization binding assay | inhibition, % at 35 µM;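 active means 50% or more with normal probe brightness, or confirmed in later tests; inconclusive means above 50% with abnormal brightness, or retests that disagree; inactive means below 50% or failed in later tests; about a fifth of its hits are not listed in these tables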;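 further: calls also rest on retests at 20 µM and on dose response follow-up; 0% = protein and probe with vehicle and 100% = probe without protein; strong numbers were not always called active; many hits fall short of the cut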
# Rce1 inhib: inhibitors of yeast Ras-converting enzyme; Q03530; yeast membranes, quenched prenylated peptide cleavage fluorescence; calls only; 290,000 tested, 0.27% active;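 active means fall in fluorescence gain of 50% or more versus controls, with final raw signal at or below 3038400; inconclusive means same 50% fall but final raw signal above 3038400; inactive means fall in fluorescence gain under 50%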;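 further: plate controls were neutral control wells for no effect and wells lacking membranes for full effect; tested at 10 µM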
# HIV Env fusion: inhibitors of HIV Env-mediated cell fusion | HeLa-JRFL Env/CEM21 cell fusion, luciferase | inhibition, % at 12.3 µM | 360,000 tested, 1.1% active | AID 651610;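 active means mean replicate inhibition score of at least 50 and every replicate individually at or above 50; inconclusive means only one of the two criteria met; inactive means mean below 50 and not all replicates reaching 50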;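 further: 0% = plate neutral controls and 100% = maraviroc near 300 nM; one replicate is shown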
# MT1-MMP act inh: MT1-MMP (human) activation inhibition; P50281; HT1080 RFP-PRO-GFP cells, GFP/RFP ratio fluorescence, overnight; percent of plate control window, DMSO zero; GFP/RFP ratio change, % at 20 µM; 360,000 tested, 0.061% active; AID 651647;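 active means GFP/RFP ratio change of at least 30% with cell ATP level not reduced by more than half and red fluorescence within 50% of control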; further: strong numbers were not always called active
#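 Assay system – RFP-PRO-GFP reporter HT1080 cells · Compound dosing – single dose of 20 µM compound, 1% DMSO final · Incubation – overnight compound exposure at 37 °C · Measure – GFP/RFP fluorescence ratio · Benchmarks – DMSO wells and RFP-L50D-GFP cells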
# MT1-MMP act inh RFP: also measured in MT1-MMP act inh; calls as there; RFP signal change, %; measured here: RFP expression control read;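 0 = vehicle wells; hits needed this value within 50% of zero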
# Starred values were filed as active, the others as inactive; i = inactive; ? = inconclusive; . = no result given; & = joins results of further samples.
SMILES,Yeast UUG start,PABP polyA inh,CSC inhib,eIF4H FP inh,Rce1 inhib,HIV Env fusion,MT1-MMP act inh,MT1-MMP act inh RFP
CC(C)Cn1c(N)c(C(=O)COC(=O)CN2C(=O)C3CC=CCC3C2=O)c(=O)n(C)c1=O (stereo not given),-10.2,3.7,-2.7,-1.6,i,21.8,-0.9,-12.4
O=C(Nc1ccccc1)c1cc(C2COCCN2C(=O)C2CC2)on1 (stereo not given),-6.6,.,.,.,.,-16.5,-1.2,4.9
Cc1cc(Cl)nc(NC(=O)Nc2cccc(Cl)c2)n1,-0.4,3.9,8.0,-12.0,i,-20.7,-0.8,0.1
O=C(NCc1ccccc1)c1ccc(/C=N/O)nc1,23.0,6.1,-17.8,-10.2,i,-47.2,-1.7,-1.2
COc1cc(OC)nc(C(NC(=O)C2CCN(Cc3c[nH]c4ccccc34)CC2)c2ccc(Cl)cc2)n1 (stereo not given),24.5,.,.,.,.,6.3,0.6,-1.1
NS(=O)(=O)c1ccc(NC(=O)COC(=O)c2ccc(S(=O)(=O)N3CCOCC3)cc2)cc1,-11.7,.,.,.,.,3.9,0.0,1.1
COc1cccc(NC(C)C(=O)N2CC(C)OC(C)C2)c1 (stereo not given),7.2,20.6,-0.4,15.0,i,-13.8,1.9,2.8
CC(C)NC(=O)c1ccccc1NC(=O)C1CCCO1 (stereo not given),-2.4,11.8,.,-3.8,i,4.9,-1.5,6.4
Cc1ccc(NC(=O)C2(C)CCN2Cc2cccc3c2OCO3)cc1O (stereo not given),-6.6,.,.,.,.,13.6,7.3,-10.2
CC(C)(CNc1ccc([N+](=O)[O-])cc1Cl)CNS(C)(=O)=O,-15.9,11.7,-6.4,-8.2,i,-146.9,1.2,-1.5
COc1ccc(S(=O)(=O)NCC(=O)NC2CC2)cc1OC,-1.4,7.7,1.6,-0.8,i,-5.4,0.3,1.9
COc1ccc(-c2cc3c(c4c2ccn4C)C2CCC3O2)cn1 (stereo not given),2.6,.,.,.,.,11.1,2.0,1.4
COc1ccc(CN2CCN(C(=O)C3CCC(CNS(=O)(=O)c4ccccc4)CC3)CC2)c(OC)c1OC (stereo not given),.,0.4,-3.2,-5.8,i,22.0,3.4,-15.9
COc1ccccc1N1CCN(C2CCCN(C(=O)CCc3ccccn3)C2)CC1 (stereo not given),-5.7,-3.4,-5.6,-5.9,i,2.2,-3.8,0.4
COCCOc1ccc(C(F)(F)F)cc1NC(=O)COC(=O)C12CC3CC(CC(O)(C3)C1)C2,9.8,7.4,16.0,-16.9,i,-11.1,0.7,4.0
O=C(NS(=O)(=O)Oc1cccc(Cl)c1Cl)OC[C@@H]1CCCN2CCCCC12 (stereo not given in full),.,-5.4,7.3,0.6,.,-36.3,0.9,7.3
O=C(O)Cc1ccc(NC(=O)Cc2ccc3ccccc3c2)cc1,4.2,-2.9,.,-10.8,i,-6.3,0.1,0.1
COc1ccc(N2CCN(c3nc4c(c(=O)[nH]c(=O)n4C)n3Cc3cccc(C)c3)CC2)cc1,-16.0,5.1,8.8,-1.7,i,3.6,-6.7,-5.2
COc1ccc(CCNC(=O)CCS(=O)(=O)c2cccc3nsnc23)cc1OC,4.6,4.8,6.3,-0.5,i,-0.6,4.0,2.6
COc1ccc(OC)c(NC(=O)CSc2nc3ccccc3cc2Cc2ccccc2)c1,-16.1,-0.3,-0.9,-0.7,i,.,-11.5,-9.1
Cc1ccc(S(=O)(=O)N2CCCCCC2)cc1[N+](=O)[O-],7.7,12.1,9.8,1.1,i,33.9,0.7,-0.1
C[C@H](CO)N1C[C@H](C)[C@@H](CN(C)Cc2ccc(C(=O)O)cc2)Oc2ncc(Br)cc2C1=O,1.0&-11.7,.,.,.,.,12.6,4.7,2.3
Cc1ccc2c(c1)N(CCC(=O)NCC1CCCO1)C(=O)CO2 (stereo not given),-14.5,-7.5,8.4,5.8,i,-7.9,-1.3,-3.2
c1ccc2c(c1)CN1CCCC1=N2,-12.1,-6.6,-6.9,-18.9,i,7.7,2.8,0.0
COCCN(C(=O)c1sc2ccccc2c1Cl)c1c(N)n(CC(C)C)c(=O)[nH]c1=O,2.7,.,4.9,.,.,.,0.6,0.6

# In another format: results already given
# Order of results – Yeast UUG start	PABP polyA inh	CSC inhib	eIF4H FP inh	Rce1 inhib	HIV Env fusion	MT1-MMP act inh	MT1-MMP act inh RFP
Cc1cc(Cl)nc(NC(=O)Nc2cccc(Cl)c2)n1
→ -0.4	3.9	8.0	-12.0	i	-20.7	-0.8	0.1
O=C(NCc1ccccc1)c1ccc(/C=N/O)nc1
→ 23.0	6.1	-17.8	-10.2	i	-47.2	-1.7	-1.2
COc1cc(OC)nc(C(NC(=O)C2CCN(Cc3c[nH]c4ccccc34)CC2)c2ccc(Cl)cc2)n1 (stereo not given)
→ 24.5	.	.	.	.	6.3	0.6	-1.1
NS(=O)(=O)c1ccc(NC(=O)COC(=O)c2ccc(S(=O)(=O)N3CCOCC3)cc2)cc1
→ -11.7	.	.	.	.	3.9	0.0	1.1

# Continuation.
SMILES,Yeast UUG start,PABP polyA inh,CSC inhib,eIF4H FP inh,Rce1 inhib,HIV Env fusion,MT1-MMP act inh,MT1-MMP act inh RFP
Cc1ccnc(NS(=O)(=O)c2ccc(NC(=O)CC(C)c3ccccc3)cc2)n1 (stereo not given),-3.9,-9.1,-7.0,-9.8,.,8.8,2.3,2.0
O=C(Nc1ccc(N2CCCC2)c(Cl)c1)c1ccc([N+](=O)[O-])cc1,.,2.7,10.6,-4.8,i,-9.6,6.6,-11.0
CCc1ccc(NC(=O)CSCCN2C(=O)c3ccccc3C2=O)cc1,.,8.2,-8.3,-6.8,i,-12.2,2.2,-2.9
O=S(=O)(Cc1ccccc1)N1CCc2ccccc21,.,4.4,1.2,?,i,.,.,.
CCOc1ccc(Nc2nc(N)c([N+](=O)[O-])c(N3CCN(C)CC3)n2)cc1,2.8,2.5,-14.6,6.5,i,9.2,1.5,-2.9
CN(C1CCCCC1)S(=O)(=O)c1ccc(S(=O)(=O)N2CCN(CCC#N)CC2)cc1,-14.1,-6.3,-17.3,-3.8,i,9.8,-0.4,-1.8
CC(C)Oc1ccc(S(=O)(=O)N(C(C)C)C(C)C)cn1,-11.1,-18.9,-4.4,-3.1,i,.,-1.9,3.7
Cc1ccc(-n2nccc2-c2nn(-c3cccc(C(F)(F)F)c3)c(=O)n(C)c2=O)cc1,-9.3,-1.5,3.9,7.1,i,-4.7,-0.3,2.8
O=C(Nc1nc2ccccc2[nH]1)c1ccc(Br)o1,.,-7.7,10.6,14.9,i,-56.8,2.9,2.2
CCN(CC)CCn1c2ccc(Cl)cc2c2nc(C)sc21,-20.0,2.2,11.5,-8.0,i,.,0.0,-3.1
CCOc1ccc(OCC(=O)Nc2ccc(S(N)(=O)=O)cc2)cc1,.,?,-15.2,0.3,i,7.5,-2.1,-0.7
O=S(=O)(c1ccc(F)cc1)N1CCN(c2ccc(-c3ccccc3)nn2)CC1,.,10.1,-8.8,6.2,i,3.9,1.1,2.5
NS(=O)(=O)c1cccc(NC(=O)CSc2nnc(C3CC3)n2Cc2ccccc2)c1,.,-7.7,9.6,7.2,i,6.9,0.3,6.2
CCC(=O)OC1(C#CCOc2ccc(OC)cc2)CCN(C)CC1,-11.2,15.4,-12.9,-0.8,i,-128.5,-8.0,-1.0
CCCCOC(=O)N/N=C/C=C/c1ccccc1,-17.6,3.1,4.1,-4.0,i,.,5.4,0.0
COc1ccc(CCN2C(=O)c3ccccc3NC2c2cc(Cl)c(O)c(OC)c2)cc1 (stereo not given),-5.8,4.3,71.3,6.1,i,-23.3,-7.0,-16.5
Cc1cc(C)n(-c2ccc([N+](=O)[O-])cc2-c2nn[nH]n2)n1,.,1.4,-1.9,7.1,i,4.1,0.3,-0.1
CC(C)Nc1nc(-c2ccccc2)nc(-n2ccnc2)n1,.,6.8,3.8,-8.0,i,-117.0,1.3,3.6
COc1ccc(CN2CCCC(C(=O)N3CCCC3)C2)c(OC)c1 (stereo not given),-25.0,8.5,-1.0,9.4,i,17.7,4.4,5.6
Cc1ccccc1OCC(=O)NC1=NCCS1,-24.1,4.4,0.5,6.6,i,-59.1,0.2,2.8
O=C(c1cccc(F)c1)N1CCN(c2ccc([N+](=O)[O-])c(N3CCOCC3)c2)CC1,-2.8,13.1,-11.4,26.7,i,?,7.0,1.3
CCCS(=O)(=O)n1nc(-c2ccc(C)cc2)cc1N,-15.8,6.8,4.3,-9.9,i,-16.1,-1.1,0.5
c1ccc(Cc2nn3c(-c4ccncc4)nnc3s2)cc1,-13.8,0.7,-4.5,3.6,i,39.3,-4.5,-2.2
COc1ccc(Cc2nc(-c3cccnc3)no2)cc1OC,.,9.0,-6.1,4.6,i,-9.3,1.8,2.8
O=C(COc1ccc(Cl)cc1Cl)Nc1ccc(C(=O)Nc2ccccc2C(=O)O)cc1,-20.5,41.1,-7.5,10.0,i,.,2.2,3.3
# Going on with the list:
SMILES,Yeast UUG start,PABP polyA inh,CSC inhib,eIF4H FP inh,Rce1 inhib,HIV Env fusion,MT1-MMP act inh,MT1-MMP act inh RFP
CCCC(=O)N1CCN(c2nnc(-c3ccccc3)c3ccccc23)CC1,-18.9,12.9,-4.2,-0.7,i,0.9,0.1,3.3
CC(=O)N1CCc2cc(Br)cc(S(=O)(=O)NCCCN3CCCC(C)C3)c21 (stereo not given),-21.4,17.2,6.3,9.2,i,-41.1,1.7,6.4
COc1ccc(CN2CC[C@H]3C=CC[C@@H](C(=O)NCCc4ccccc4)[C@H]3C2=O)cc1OC,8.7,.,0.9,.,i,-27.6,-3.5,-0.5
CC1CN(S(=O)(=O)c2cccc(C(=O)NCC3COc4ccccc4O3)c2)CC(C)O1 (stereo not given),-6.1,.,-10.6,.,.,.,1.2,-11.2
O=C(c1ccc(S(=O)(=O)N2CCOCC2)cc1)N(Cc1ccco1)Cc1cccs1,-9.5,-2.1,-10.5,-3.8,i,-30.5,-4.8,-5.4
O=C(NC1=NCCS1)c1cccc(S(=O)(=O)N2CCc3ccccc32)c1,.,0.8,-16.5,-1.3,i,17.5,3.7,-5.4
COc1cccc(C2SCC(=O)N2c2ccc(Cl)cc2)c1OC (stereo not given),-2.6,31.5,3.6,-0.8,i,.,-5.2,-3.0
CC(C)CN1CCC(C(=O)NC(c2ccc(F)cc2)c2ccc3ccccc3n2)CC1 (stereo not given),-6.5,.,.,.,.,-117.1,0.1,4.0
C=CCn1c(CNC(=O)c2cccs2)nnc1SCC(=O)Nc1ccc(C(=O)O)cc1,-3.7,44.1,0.3,5.6,i,-37.7,-1.4,2.3
CCN(CC(=O)Nc1ccccc1C(F)(F)F)C(=O)c1ccc(=O)n(Cc2ccccc2)n1,3.9,-5.0,0.8,-8.2,i,.,-0.5,2.6
Cc1onc(-c2c(F)cccc2Cl)c1C(=O)Nc1sc2c(c1C(N)=O)CCC2,-21.0,2.4,.,1.9,i,61.5*,-12.2,-13.8
CCN1CCN(c2nc3ccccn3c(=O)c2C=O)CC1,-15.7,34.1,-13.2,41.1,i,-2.3,-2.1,3.0
Cc1onc(-c2ccccc2)c1C(=O)N1CCOC12CCN(c1cccc(F)n1)CC2,-10.5,7.5,0.2,-8.8,i,18.6,-1.5,-6.7
O=[N+]([O-])c1cccc(S(=O)(=O)N2CN(c3ccc(Br)cc3)c3nc4ccccc4nc32)c1,-6.5,.,10.3,.,.,3.0,5.1,-1.6
Cc1cccc2[nH]c(CN(C)C(=O)C3CCC(=O)N(CCc4ccccc4)C3)nc12 (stereo not given),-5.5,-4.2,-6.4,-6.2,i,0.8,3.9,0.5
COCCNC(=O)CCn1nc(-c2ccc(Cl)cc2)ccc1=O,0.7,-0.2,-10.1,3.1,i,.,0.6,4.4
